Bioassay records (PubChem)
Mtb hypoxia rep: reduces hypoxia-regulated biosensor signal in M. tuberculosis | M. tuberculosis hypoxia-regulated fluorescent reporter, fluorescence | fluorescence inhibition, % (concentration not given with the values) | 300,000 compounds, 0.1% hits;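 active means 35 to 45% if threefold the growth effect, above 45% if 1.5-fold the growth effect; inactive means the rest, general growth blockers included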;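 further: wells of about 50 µL received 100 nL stock; 0% = vehicle wells and 100% = reference inhibitor wells; whole bacteria with a GFP reporter of the hypoxia response; strong numbers were not always called active; many hits fall short of the cut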
BJeLR viability: kills HRASV12-expressing BJeLR cells; BJeLR (HRASV12) viability, CellTiter-Glo ATP luminescence, 48 h; reference of the scale not given here; inhibition, % (no concentration beside the values); 300,000 compounds, 0.17% hits; AID 1554;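 active means replicate mean above 50%; inconclusive means above 50% but judged a plate artefact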;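 further: 50 nL library stock added to about 25 µL; numbers are from one replicate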
ugtP null kill: growth inhibition of S. aureus ugtP deletion strain; AID 1259309; S. aureus RN4220 ugtP deletion, OD600 growth, 16 h; some inactives read as strong as hits; growth inhibition, % (no concentration beside the values); 330,000 compounds, 0.54% hits;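 active means z-score under -3 and OD600 up to 0.15 on both plates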;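 further: plate controls were untreated wells for no effect and antibiotic for full effect; wells of about 80 µL received 100 nL stock; the first replicate is given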
Autofluor counter: counter-screen for toxin protease inhibitors: compound fluorescence. compound autofluorescence counterscreen, microsphere flow cytometry; active compounds read high. fluorescence intensity (concentration not given with the values). 360,000 compounds, 3.1% hits;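 active means at least 3 SD above the mean of all compounds, about 16000 in these data; inconclusive means too few beads counted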;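 further: 100 nL of 1 mM stock went into each well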
RN4220 kill: S. aureus RN4220 growth inhibition; 330,000 compounds, 0.33% hits; OD600, 16 h; inhibition, % (no concentration beside the values);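 active means z-score of -3 or lower and OD600 up to 0.18 on both plates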;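 further: plate controls were untreated cells for no effect and reference antibiotic for full effect; stock transfer was 100 nL into about 80 µL; one replicate is shown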
PrP 5UTR inh: suppresses PrP 5' UTR mRNA reporter expression | cell-based PrP 5' UTR mRNA reporter, plate reader | inhibition, % (test concentration not listed) | 340,000 compounds, 0.35% hits | AID 488862;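 active means every replicate at 50% or more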;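 further: 0 = median of the neutral control wells; tested in H4 reporter cells; numbers are from one replicate; inactives centre near -14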
Mtb hypoxia rep growth: recorded beside Mtb hypoxia rep, whose call it bears; growth inhibition, %; measured here: M. tuberculosis growth (absorbance);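 0% = vehicle and 100% = reference antibiotic; read after six days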
Active calls of the source: *; ? = inconclusive; . = no result given; & = joins results of further samples. Rows are unselected; overall some 4% were active at least once.

molecule	ugtP null kill	PrP 5UTR inh	Autofluor counter	Mtb hypoxia rep	Mtb hypoxia rep growth	BJeLR viability	RN4220 kill
CCNc1cc(S(=O)(=O)C(F)(F)F)ccc1N	-3.9	-7.7	3018	10.3	0.0	-3.3	5.4
CCc1ccc(NC(=O)Cn2nnc(C(=O)NCCc3ccc(OC)c(OC)c3)c2N)cc1	7.5	-21.4	4189	5.7	-1.8	-10.2	0.1
COc1ccc(C2c3c(oc4ccccc4c3=O)C(=O)N2CCCN2CCOCC2)cc1 (centres undefined)	-14.4	.	.	9.0	5.6	1.0	5.2
CCOc1cc(/C=C2/C(=O)ON=C2C)ccc1OCc1ccc(F)cc1	2.3	-15.9	7044	11.7	-8.6	-1.8	4.8
CC1(C)C=Cc2c(ccc3c2OC[C@@H](c2ccc(O)cc2O)C3)O1	19.6	-12.4	4128	.	.	6.9	-7.5
COc1cc(C(=O)NCC(=O)OCC(=O)Nc2nnc(-c3ccccc3)o2)cc(OC)c1OC	5.8	-18.4	?	0.5	-6.9	-3.0	1.3
O=C(CCC(=O)N1CCN(c2cccc(Cl)c2)CC1)c1cccs1	-2.1	8.6	.	2.1	11.3	-3.8	1.1
O=C(c1ccc(NS(=O)(=O)c2ccc(F)cc2)cc1)N1CCC1	4.0	-5.6	?	-0.2	-0.5	7.5	3.1
CSCCCNC(=O)c1ccc(OC2CCN(C(=O)c3cccnc3)CC2)cc1	-0.2	-11.8	4648	-2.5	-5.9	8.4	1.7
Cc1ccc(OCCCCN2CCC(C)CC2)c(Br)c1	0.6	-12.6	2592	2.6	4.7	1.5	10.1
CCC(C)NC(=O)c1ccc(CS(=O)(=O)c2ccc(OC)cc2)o1 (centres undefined)	9.9	-8.8	6281	.	.	-6.6	0.6
C/C(=N\NC(=O)c1nc2ccccn2c1C)c1cc2ccccc2o1	.	-21.2	4598	.	.	-2.0	.
CS(=O)(=O)N(CCc1ccccc1)CC(=O)NCC1CCCO1 (centres undefined)	-3.5	-17.2	3209	9.0	0.0	0.2	5.7
O=C(CSc1ccc2nnc(-c3ccncc3)n2n1)NCc1ccco1	0.7	-1.3	5802	-1.5	1.9	-2.9	4.7
Cc1ccc(NC(=O)COC(=O)C2CC(=O)N(Cc3ccccc3)C2)cc1S(=O)(=O)N(C)C (centres undefined)	2.8	-18.5	4218	6.7	3.3	-6.5	-0.7

Continued.
molecule	ugtP null kill	PrP 5UTR inh	Autofluor counter	Mtb hypoxia rep	Mtb hypoxia rep growth	BJeLR viability	RN4220 kill
O=C1C=CC(=O)N1Cc1ccccc1	.	-0.3	5314	.	.	-0.8	.
Cc1ccc2c(C)c(C(=O)N3CCCCC3CO)oc2c1C (centres undefined)	0.7	-13.6	5992	12.4	0.1	7.2	6.9
COc1cc(CC(=O)OCC(=O)Nc2cc([N+](=O)[O-])ccc2F)cc(OC)c1OC	12.1	-19.8	2082	1.2	9.2	-7.0	-1.2
CC(C)C(=O)NNS(=O)(=O)c1ccccc1[N+](=O)[O-]	0.4	-14.0	1991	5.3	8.8	-4.4	5.5
Cc1ccc(SCCC(=O)OC(C)C(=O)Nc2ccccc2)cc1 (centres undefined)	5.2	-15.6	.	1.6	-2.5	-14.9	2.7
Cn1ccnc1SCC(=O)NC1CCCC1	0.8	-5.6	7363	3.1	18.1	-7.0	-0.8
COc1cc(C)nc(Oc2ccc(/C=N/O)cc2)n1	.	-7.3	2316	.	.	-9.1	.
O=C(NCc1cccnc1)c1nc(-c2ccccc2)n(-c2ccccc2)n1	4.5	-15.6	6217	-1.1	8.8	3.5	1.0
O=C(O)c1ccc2c(c1)C(=O)N(c1ccc(Cl)cn1)C2=O	-4.6	-3.7	6852	2.0	1.0	-5.0	6.1
COC(=O)c1[nH]c2ccc(F)cc2c1NS(=O)(=O)c1ccc(F)c(C)c1	-14.9	-15.0	8734	5.7	-1.2	16.9	4.4
CCSC1(SCC)N=C(N)C2(C#N)C(c3ccc(OC)c(OC)c3OC)C12C#N (centres undefined)	-1.3	-27.2	2798	18.4	-19.7	17.9	-26.7
COc1ccccc1CN(C)C(=O)CNC(=O)c1cccc(Cl)c1	21.9	.	3637	0.0	0.4	-2.4	-4.3
O=C(CN1C(=O)NC2(CCCC2)C1=O)NNC(=O)c1ccc(Cl)cc1	-0.5	-9.1	3980	-3.9	-3.2	.	-2.5
Cc1cc2ccccn2c1C(=O)Nc1ccc(Cl)cc1	3.4	-34.6	4343	9.2	5.0	5.4	27.7
Cc1ccc(C(=O)O/N=C(\N)c2ccccc2)c(Cl)c1	10.7	56.2*	4151	1.3	7.5	-5.5	3.0

Filtered by structure, the entries above with a nitro group on carbon (two)
molecule	ugtP null kill	PrP 5UTR inh	Autofluor counter	Mtb hypoxia rep	Mtb hypoxia rep growth	BJeLR viability	RN4220 kill
COc1cc(CC(=O)OCC(=O)Nc2cc([N+](=O)[O-])ccc2F)cc(OC)c1OC	12.1	-19.8	2082	1.2	9.2	-7.0	-1.2
CC(C)C(=O)NNS(=O)(=O)c1ccccc1[N+](=O)[O-]	0.4	-14.0	1991	5.3	8.8	-4.4	5.5

(listing goes on)
molecule	ugtP null kill	PrP 5UTR inh	Autofluor counter	Mtb hypoxia rep	Mtb hypoxia rep growth	BJeLR viability	RN4220 kill
COCCCNC(=O)c1ccc2c3c(onc13)-c1ccccc1C2=O	17.6	-69.1	3378	11.2	9.2	51.4*	79.8
O=C(NNC(=O)c1cccs1)c1ccc(Cl)nc1	12.5	-24.3	4355	-1.2	-1.5	7.2	6.0
Cc1ccc(S(=O)(=O)NCCN2CCOCC2)cc1	-4.2	-19.3	3161	-13.3	-11.8	7.7	-2.1
O=C(c1cc2ccccc2c(=O)o1)N1CCc2ccccc2C1	3.2	-12.5	2434	-5.2	1.9	-6.1	8.4
O=C(NCC1CCCO1)c1ccc2c(c1)C(=O)N(c1cccc([N+](=O)[O-])c1)C2=O (centres undefined)	-4.4	-3.0	4520	-5.7	-1.8	-6.0	-5.3
CN(C)/C=N/C(=S)Nc1ccc(Br)cc1F	.	-54.2	2543	.	.	-3.1	.
CCOc1ccccc1NC(=O)C1CCN(S(=O)(=O)c2ccc(OC)c(OC)c2)CC1	-2.8	-19.5	9109	-5.8	-4.0	6.4	1.3
CCCOC(=O)C1C2CCC(O2)C1C(=O)O (centres undefined)	-2.3	13.4	4115	5.6	12.6	.	2.8
CCN(CC)C(=O)Cn1cc(S(=O)(=O)CC(=O)NCCc2ccccc2)c2ccccc21	1.2	-11.4	5174	3.6	9.8	-0.1	1.8
CCOc1ccccc1/C=N/NC(=O)c1cccc(S(=O)(=O)N(CC)CC)c1	.	3.2	4294	.	.	-2.5	.
COc1cc(/C=N/N=C(/C(=O)c2ccccc2)c2ccccc2)cc(OC)c1O	.	-16.5	10693	.	.	10.8	.
Cc1cc(C(=O)COc2ccccc2C#N)c(C)n1C1CC1	7.3	-14.3	?	6.8	7.4	-9.4	5.9
CC(=O)Nc1ccc(S(=O)(=O)N(C)c2ccc(OCC(=O)NCCc3ccccc3F)cc2)cc1	0.7	-6.9	2985	10.8	7.2	.	8.2
O=C(CSc1nc2c(c(=O)n1-c1ccc(Cl)cc1)SCC2)N1CCOCC1	-2.2	10.3	4618	6.3	9.4	0.3	-9.7
CCC(C)(C)NC(=O)c1cc(OC)c(OC)cc1[N+](=O)[O-]	-6.0	-39.2	2898	-3.4	6.7	-2.1	0.3

Next part:
molecule	ugtP null kill	PrP 5UTR inh	Autofluor counter	Mtb hypoxia rep	Mtb hypoxia rep growth	BJeLR viability	RN4220 kill
Cc1nnc(NC(=O)CSc2ccc(-c3ccco3)nn2)s1	2.7	-5.4	4224	1.7	2.4	3.6	1.9
Cc1cc(C)c(C(=O)OCC(=O)NC(=O)c2ccccc2)c(C)c1	-0.4	-25.9	4968	5.4	6.4	-3.5	2.1
O=C(CN1C(=O)/C(=C\c2ccccc2F)SC1=S)Nc1nc2ccccc2s1	-5.2	-14.0	2468	-5.4	4.0	-3.6	-7.6
CC1(C)CC(=O)C=C(Nc2ccc(F)cc2)C1	0.7	-3.6	11019	0.3	-1.5	2.6	3.4
O=C(Nc1ccc2c(c1)OCO2)c1c[nH]c(=O)n(-c2ccc(F)cc2)c1=O	6.6	-20.0	5366	12.6	8.8	-5.1	-1.9
COc1ccc(C2NC(C(=O)O)CS2)cc1COCC(F)(F)F (centres undefined)	8.4	.	.	6.0	-0.4	-9.1	1.8
COc1ccc(SC[C@H](CC(C)C)N2CCN(CCc3ccccc3)CCC2=O)cc1	-11.8	-7.2	5418	-4.3	7.5	-2.7	-6.4
CN(Cc1ccccc1)C(=O)COc1ccccc1Cl	7.5	-15.3	3592	17.9	21.1	4.9	8.8
CC(=O)NC1(c2ccccc2)CCN(CC(=O)N2CCC(C)CC2)CC1	3.2	-11.5	3333	-1.2	11.2	-10.7	0.0
COc1ccc(OC)c(/C=N/NC(=O)c2c(C)nc3ccc(C)cn23)c1	.	5.4	3888	.	.	-0.9	.
CCc1ncc(CN2CCCC(C(=O)Nc3ccc(-c4cscn4)cc3)C2)cn1 (centres undefined)	15.4	-8.9	6338	5.3	-3.2	16.2	3.6
CCC(CO)Oc1cc(NC(=O)c2ccccc2N)c2ncn(C(C)C)c2c1 (centres undefined)	10.3	-10.3	2896	9.5	10.9	.	4.1
Cc1ccc(NC(=O)CCNC(=O)c2ccc(Cl)cc2)cc1F	-10.4	-15.2	2357	-0.5	-2.0	0.1	7.4
CCc1nc(NCc2cccnc2)c2oc3ccccc3c2n1	4.1	-23.3	16165*	11.9	13.7	-7.1	8.1
CC12CCC(C(=O)Nc3ccccc3)(C(Br)C1=O)C2(C)C (centres undefined)	8.1	-5.1	2452	0.4	4.0	-7.7	4.8

Additional entries follow:
molecule	ugtP null kill	PrP 5UTR inh	Autofluor counter	Mtb hypoxia rep	Mtb hypoxia rep growth	BJeLR viability	RN4220 kill
Cc1ccc(C(=O)Nc2cccc(C(F)(F)F)c2)cc1NC(=O)c1nccnc1N	-0.9	-4.5	3339&4146	1.3	-6.2	-4.7	10.2
O=C(c1ccc(Cl)c(S(=O)(=O)N2CCCC2)c1)N1CCCCC1	2.4	-21.8	?	3.2	1.5	-27.9	0.8
COC(=O)/C(=C1/Oc2ccc(C(C)(C)C)cc2S1)C(F)(F)F	5.1	-56.9	2618	-5.0	1.3	1.3	2.0
Cc1cccc(N2CCN(C(=O)COc3cc(=O)n(C)c4ccccc34)CC2)c1C	-2.0	-12.0	6328	2.5	17.2	-11.3	4.6
CCN(CC)CCN(Cc1cc2ccc(C)cc2[nH]c1=O)C(=S)Nc1ccccc1C(=O)OC	13.2	-5.5	3853	-4.9	0.0	-2.6	2.9
CC(=NNC(=O)CN1CCN(S(=O)(=O)c2ccc(C)cc2)CC1)c1ccc(O)cc1	-0.4	.	.	13.5	-0.3	.	3.5
CC12CCC(C(=O)NN=Cc3ccc(O)cc3)(OC1=O)C2(C)C (centres undefined)	-7.7	.	.	-3.3	-2.6	.	1.4
COc1ccccc1CNC(=O)CCC(=O)N1Cc2cccc(OC)c2Oc2ncccc21	4.9	-31.2	5519	-7.3	2.0	2.0	0.7
COc1ccc(CCNC(=O)C(C)OC(=O)c2nsc(Cl)c2Cl)cc1OC (centres undefined)	3.3	-19.0	4903	8.6	1.0	-15.0	4.8
N/C(=N\OC(=O)Cc1ccc(-c2ccccc2)cc1)c1ccncc1	.	-28.9	4743	.	.	2.1	.
O=C1CC2(CCCCC2)Oc2ccccc21	-3.0	-14.5	4064	10.5	10.7	-15.9	4.9
CCOc1ccccc1C(=O)OCC(=O)Nc1nnc(-c2ccccc2)o1	0.4	-13.8	?	2.7	0.0	-3.1	6.2
COc1ccc(C2C=CCN(C(=O)NC(C)C)CC(=O)N2Cc2ccc(F)cc2)cc1 (centres undefined)	-3.1	.	.	-4.3	-15.4	.	-0.6
CCOC(=O)C(C#N)=NNc1ccc(S(=O)(=O)Nc2nc(C)cc(C)n2)cc1	-1.0	.	.	17.6	5.8	.	6.4
CN(C)C=NCCn1c(N2CCOCC2)nc2c1c(=O)n(C)c(=O)n2C	-1.3	-10.7	2785	.	.	2.8	-5.4
CCn1c(CSCc2ccc(C)cc2)nnc1SCC(=O)N1CCN(c2ccccc2)CC1	-5.3	-18.0	3697	5.4	10.9	-4.2	3.8
CCCn1c(-c2cccnc2Cl)nc2cc(Cl)c(Cl)cc21	-18.4	-12.3	21449*	12.5	5.0	17.0	5.4
NC(=O)C1CCN(C(=O)c2ccc(-c3ccccc3)cc2)CC1	.	8.0	3178	.	.	1.3	.
